Screens (PubChem)
HSV replic up: HSV replication enhancement; HSV replication augmentation in cells, fold increase; AID 1956; 220,000 compounds, 0.005% hits; maximum fold increase;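 active = peak rise of 1.5-fold or more in the series; inconclusive = self-fluorescent or not available for retest; tested in PC3 cells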;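 also: first round at 10 µM; read as green reporter fluorescence; hits show the peak of a series up to 25 µM; 1 = signal of infected wells without compound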
RGS16-Gao: RGS16-Galphao interaction regulator (human). bead-based flow cytometry RGS16-Galphao binding, fluorescence; actives lie on both sides. 220,000 compounds, 0.38% hits. binding response (% of control), % at 10 µM;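 active = below 25% or above 175%, edge rows of some plates excepted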;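 also: Galphao activated by GDP with aluminum fluoride before binding; 100% = wells without compound and 0% = beads without RGS; some results beyond the cut were filed as inactive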
GALR2 ag: GALR2 (human) receptor agonism; O43603; GALR2-expressing cells, agonist activation read-out; activation, %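 (tested at 5 µM)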; 140,000 compounds, 0.48% hits; AID 803;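 active = above mean plus 3 SD of all compounds, about 5% in these data, not always enough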;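 also: 0% = vehicle buffer wells and 100% = reference agonist at full effect; tested in CHO reporter cells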
PKD1 kinase inh: PKD1 (human) kinase inhibition | AID 797 | PKD1 kinase fluorescence polarization assay | 200,000 compounds, 0.056% hits | Q15139 | inhibition, %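 (about 10 µM by stock and volumes)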;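 active = inhibition of 50% or more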;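 also: controls were vehicle for no effect and a reference inhibitor for full effect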
Target sequence (Q15139 whole entry, looked up): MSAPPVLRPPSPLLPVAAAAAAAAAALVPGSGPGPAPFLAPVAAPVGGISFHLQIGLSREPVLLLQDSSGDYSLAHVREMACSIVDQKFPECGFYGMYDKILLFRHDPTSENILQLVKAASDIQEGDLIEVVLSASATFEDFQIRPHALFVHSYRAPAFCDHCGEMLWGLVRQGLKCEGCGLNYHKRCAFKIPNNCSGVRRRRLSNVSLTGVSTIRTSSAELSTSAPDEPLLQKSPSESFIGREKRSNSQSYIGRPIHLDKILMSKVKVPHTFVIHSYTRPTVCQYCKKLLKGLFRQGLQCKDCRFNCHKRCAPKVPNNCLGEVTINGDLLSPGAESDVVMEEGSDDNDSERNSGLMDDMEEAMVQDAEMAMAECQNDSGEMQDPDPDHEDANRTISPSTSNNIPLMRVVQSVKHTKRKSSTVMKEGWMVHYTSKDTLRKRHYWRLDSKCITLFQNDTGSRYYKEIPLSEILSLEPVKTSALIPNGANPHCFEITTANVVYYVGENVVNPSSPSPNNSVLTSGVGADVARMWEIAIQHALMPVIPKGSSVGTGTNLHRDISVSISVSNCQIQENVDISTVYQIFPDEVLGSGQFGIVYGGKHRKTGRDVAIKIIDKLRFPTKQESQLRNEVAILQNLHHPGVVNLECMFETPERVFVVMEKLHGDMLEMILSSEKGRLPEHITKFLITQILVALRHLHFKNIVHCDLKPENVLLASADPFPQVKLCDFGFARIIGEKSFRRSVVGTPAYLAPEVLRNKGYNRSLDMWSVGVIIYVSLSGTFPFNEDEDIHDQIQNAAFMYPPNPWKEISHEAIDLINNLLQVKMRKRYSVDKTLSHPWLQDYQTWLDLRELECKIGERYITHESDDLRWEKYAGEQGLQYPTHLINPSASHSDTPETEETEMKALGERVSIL
Insulin prom inh: TRM-6 insulin promoter activity inhibition | inhibition, % at 2 µM | TRM-6 cells (human fetal islet line), insulin promoter-eGFP reporter, imaging; reporter expression induced with tamoxifen | 130,000 compounds, 0.9% hits;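 active = inhibition above the mean plus 3 SD, with well images judged a real hit on visual review, cut at about 60% in these data, passing the limit was not always enough; inconclusive = inhibition over the cutoff but images rejected on review; inactive = inhibition not above the cutoff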
Insulin prom inh cell count: recorded beside Insulin prom inh, whose call it bears; normalized cell count, %; measured here: cell count, toxicity; reference of the scale not given here;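 cells exposed to compound for 48 h; stained nuclei by imaging scaled within each plate; lower means fewer cells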
HSV replic up primary fold: also measured in HSV replic up; calls as there; fold increase; compound at 10 µM; measured here: primary screen fold increase 10 uM; tested in PC3 cells;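 GFP signal in the first replicate; 1 = infected wells without compound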
* = called active by the depositor; i = inactive; ? = inconclusive; . = no result given.

No. | mol | HSV replic up | HSV replic up primary fold | RGS16-Gao | GALR2 ag
1 | COc1cc(-c2ccc(NC(=O)NC3CC3)c(OC)c2)ccc1NC(=O)NC1CC1 | i | 0.79 | 119 | .
2 | CC1=C(C(=O)OC(C)C)C(c2ccccc2)NC(=S)N1C (stereo unspecified) | i | 1 | 106 | -1.2
3 | O=C(NN1CCCCC1)c1cccc2ccccc12 | i | 1.1 | 103 | .
4 | Cc1ccc(C(=O)N/C(=C\c2ccc(-c3ccc(Cl)cc3)o2)C(=O)NCCCN(C)C)cc1 | i | 0.7 | 104 | .
5 | FC(F)(F)c1ccc(Cl)c(NC(=S)N/N=C/c2ccccc2C(F)(F)F)c1 | i | 0.86 | 98 | -1.7
6 | O=C1CCCC2=C1C(c1ccc(Cl)cc1)n1c(s/c(=C\c3ccc4ccncc4c3)c1=O)=N2 (stereo unspecified) | . | . | 98 | -1.2
7 | CCC(=O)NC(NC(=S)Nc1ccc(S(N)(=O)=O)cc1)C(Cl)(Cl)Cl (stereo unspecified) | i | 1.1 | 89 | -1.3
8 | CCCn1c(=N)n(CC(=O)C(C)(C)C)c2ccccc21 | i | 0.81 | 104 | 0.8
9 | CC1(C)CC(=O)C(C=NCCN2CCN(CC(=O)Nc3ccc(Cl)cc3)CC2)=C(O)C1 | i | 0.94 | 103 | .
10 | CC(=O)NC(Cc1c[nH]c2ccccc12)C(=O)Nc1ccc2c(c1)OCO2 (stereo unspecified) | i | 0.97 | 94 | -2.4
11 | CC(=O)NC1(C2CCCCC2=O)CCCCC1 (stereo unspecified) | i | 0.85 | 103 | -2.1
12 | CCOc1ccc2c(c1)S/C(=C\c1cccs1)C(=O)N2 | i | 1.1 | 99 | .

No. | PKD1 kinase inh | Insulin prom inh | Insulin prom inh cell count
1 | . | . | .
2 | -3 | . | .
3 | -1 | -84 | 90
4 | -6 | . | .
5 | -4 | 2 | 107
6 | 2 | -18 | 78
7 | -1 | . | .
8 | -11 | . | .
9 | 6 | . | .
10 | -8 | 38 | 112
11 | 5 | . | .
12 | . | . | .

A draw from above in order of length of the SMILES, largest number first:
No. | mol | HSV replic up | HSV replic up primary fold | RGS16-Gao | GALR2 ag
6 | O=C1CCCC2=C1C(c1ccc(Cl)cc1)n1c(s/c(=C\c3ccc4ccncc4c3)c1=O)=N2 (stereo unspecified) | . | . | 98 | -1.2
1 | COc1cc(-c2ccc(NC(=O)NC3CC3)c(OC)c2)ccc1NC(=O)NC1CC1 | i | 0.79 | 119 | .
2 | CC1=C(C(=O)OC(C)C)C(c2ccccc2)NC(=S)N1C (stereo unspecified) | i | 1 | 106 | -1.2
3 | O=C(NN1CCCCC1)c1cccc2ccccc12 | i | 1.1 | 103 | .

No. | PKD1 kinase inh | Insulin prom inh | Insulin prom inh cell count
6 | 2 | -18 | 78
1 | . | . | .
2 | -3 | . | .
3 | -1 | -84 | 90

Continuation.
No. | mol | HSV replic up | HSV replic up primary fold | RGS16-Gao | GALR2 ag
13 | COc1ccc(NC(=O)Nc2nccs2)cc1 | i | 0.68 | 103 | -0.8
14 | CC(C)Cn1c(N2CCN(CC(=O)Nc3ccc(Cl)cc3)CC2)nc2ccccc21 | i | 0.72 | 99 | .
15 | Cc1ccc2c(c1)C(c1ccc(F)cc1)N(C(=O)C1CC1)CC(=O)N2 (stereo unspecified) | i | 1 | 104 | -1.5
16 | O=S(=O)(NCc1cc(-c2ccccc2Cl)no1)c1ccccc1 | i | 0.95 | 101 | -3.0
17 | COc1cc(C2C(C(=O)c3ccco3)=C(O)C(=O)N2Cc2cccnc2)cc(OC)c1OC (stereo unspecified) | i | 0.93 | 94 | -3.9
18 | COc1cccc(/C=C2/NC(=O)NC2=O)c1OCC(=O)Nc1ccccc1 | i | 0.89 | 97 | .
19 | Cc1ccc(S(=O)(=O)N2CCOCC2)cc1C(=O)OCC(=O)N1CCc2ccccc2C1 | i | 0.85 | 130 | -0.2
20 | O=[N+]([O-])c1cc(CN2CCC(O)CC2)ccc1Cl | i | 0.86 | 101 | .
21 | Cc1nnc(SC(C(=O)Nc2cc(Cl)cc(Cl)c2)c2ccccc2)[nH]c1=O (stereo unspecified) | i | 0.98 | 99 | .
22 | CCCOc1ccc(-c2nc(C#N)c(N3CCN(CC)CC3)o2)cc1 | i | 0.98 | 103 | -2.8
23 | CCN(CC)c1ccc(/C=C(\C#N)c2nc(-c3cccs3)c(NC(C)=O)s2)cc1 | ? | . | 102 | -0.3
24 | CC(=O)Nc1ccc(S(=O)(=O)NCC2CCC(C(=O)NC(C)c3ccccc3)CC2)cc1 (stereo unspecified) | i | 1.1 | 119 | .

No. | PKD1 kinase inh | Insulin prom inh | Insulin prom inh cell count
13 | 5 | 55 | 102
14 | 4 | 38 | 141
15 | -4 | . | .
16 | 4 | 34 | 118
17 | -4 | 7 | 131
18 | 2 | . | .
19 | 1 | -21 | 158
20 | 1 | . | .
21 | -3 | . | .
22 | -1 | . | .
23 | 5 | . | .
24 | -3 | -58 | 166

New compounds follow
No. | mol | HSV replic up | HSV replic up primary fold | RGS16-Gao | GALR2 ag
25 | Cc1ccc(S(=O)(=O)N2CC3(C)CN(S(=O)(=O)c4ccc(C)cc4)CC(C)(C2)C3)cc1 | i | 1.1 | 99 | -1.2
26 | CCN=C1Cn2c(nc3scc(-c4ccccc4)c3c2=O)CN1CC | i | 0.87 | 97 | -1.4
27 | O=C(N/N=C/C(Cl)=C\c1ccccc1)c1cnccn1 | i | 0.97 | 85 | -1.6
28 | O=[N+]([O-])c1ccc(/C=N/Nc2ccc3ccccc3c2)o1 | ? | . | 101 | -2.0
29 | CC(=O)N/C(=C\c1ccccc1)C(=O)OCC(=O)NC(C)C12CC3CC(CC(C3)C1)C2 (stereo unspecified) | i | 0.88 | 109 | -0.8
30 | Cc1cc(C)nc(N(C#N)S(=O)(=O)c2ccccc2Cl)n1 | i | 0.91 | 116 | 1.3
31 | CCC(=O)N1CCc2cc(S(=O)(=O)CCC(=O)Nc3c(C)n(C)n(-c4ccccc4)c3=O)ccc21 | . | . | . | 0.3
32 | CC(=O)Nc1ccccc1C(=O)N1CC(C)OC(C)C1 (stereo unspecified) | i | 0.81 | 98 | -1.0
33 | CC(C)Oc1ccc(/C(O)=C2/C(=O)C(=O)N(Cc3cccnc3)C2c2ccco2)cc1 (stereo unspecified) | i | 1 | 99 | -1.4
34 | O=C(CSc1nnc(-c2cccc(F)c2)o1)Nc1nncs1 | i | 1.1 | 120 | .
35 | O=C(OCC(=O)c1ccc(Cl)cc1Cl)c1ccc2c(c1)C(=O)N(c1cccc3ncccc13)C2=O | i | 0.73 | 142 | -0.8
36 | C/C=C/Cn1c(N2CCCCCC2)nc2c1c(=O)[nH]c(=O)n2C | . | . | 99 | -0.9

No. | PKD1 kinase inh | Insulin prom inh | Insulin prom inh cell count
25 | 2 | -9 | 99
26 | 0 | . | .
27 | -4 | -12 | 117
28 | 0 | i | 156
29 | -3 | 31 | 115
30 | 6 | -400 | 69
31 | 4 | -292 | 120
32 | 3 | 55 | 75
33 | -7 | 4 | 72
34 | 7 | 29 | 87
35 | -16 | . | .
36 | -3 | . | .

Next part.
No. | mol | HSV replic up | HSV replic up primary fold | RGS16-Gao | GALR2 ag
37 | Cc1cccc(COCC(Cc2ccccc2)N2CCN(C(=O)c3ccc(Cl)c(Cl)c3)CCC2=O)c1 (stereo unspecified) | i | 0.79 | 103 | -2.2
38 | COC(CSc1ncnc2c1oc1nc3c(cc12)COC(C)(C)C3)OC | i | 0.91 | 119 | .
39 | O=C1CC(N2CCN(S(=O)(=O)c3ccc(Cl)cc3)CC2)C(=O)N1CCc1ccccc1 (stereo unspecified) | i | 0.87 | 98 | -3.1
40 | CC(=N)C1=C(O)CC(C)(C)CC1=O | i | 1.2 | 103 | -0.5
41 | CCOC(=O)N1CCC(N(CCN(C)C)C(=S)Nc2ccccc2OCC)CC1 | i | 0.97 | 99 | .
42 | Cc1cc(C)c2cc(C(=O)N3CCC(C(=O)c4ccc(F)cc4)CC3)[nH]c2c1 | i | 1 | 100 | .
43 | Cc1ccc(C2(O)CN(c3ccccc3)C3=[N+]2CCS3)cc1 (stereo unspecified) | . | . | 101 | -0.7
44 | O=C(NC1CCCCC1)c1c2c(nc3ccccc13)CCC2 | i | 1.1 | 101 | .
45 | Cc1c(CNC(=O)c2cnn3c2NC(c2ccc(Br)cc2)CC3C(F)(F)F)cnn1C (stereo unspecified) | i | 0.94 | 103 | 3.8
46 | COc1cc(SSc2cc(OC)cc([N+](=O)[O-])c2N)c(N)c([N+](=O)[O-])c1 | i | 1 | 39 | .
47 | O=c1[nH]n(-c2cccc(Cl)c2)c2ncccc12 | i | 0.94 | 102 | -1.4
48 | COc1ccc(/C=N/NC(=O)c2cc(C34CC5CC(CC(C5)C3)C4)[nH]n2)cc1OC | i | 1 | 97 | -0.4

No. | PKD1 kinase inh | Insulin prom inh | Insulin prom inh cell count
37 | -17 | -32 | 101
38 | . | . | .
39 | -17 | -10 | 101
40 | -4 | 26 | 134
41 | -4 | -64 | 145
42 | . | . | .
43 | -4 | . | .
44 | -4 | -26 | 162
45 | -1 | 81* | 26*
46 | . | . | .
47 | -6 | 21 | 56
48 | 0 | . | .

(continued)
No. | mol | HSV replic up | HSV replic up primary fold | RGS16-Gao | GALR2 ag
49 | CCn1c(=O)[nH]c2cc(C(=O)N3CCN(c4ccccc4)CC3)ccc2c1=O | i | 0.99 | 74 | -3.1
50 | CC(C)(C)NC(=O)c1cccc(NC(=O)CSc2ccccc2)c1 | i | 0.77 | 100 | -1.3
51 | CCOC(=O)C1(CCCc2ccccc2)CCN(C(=O)c2cc(C)nc(C)n2)CC1 | i | 0.94 | 99 | .
52 | CCCCCn1cnc2sc(CC)cc2c1=O | i | 0.96 | 95 | -0.9
53 | CCCCN1C(=S)NC[C@@H]1C(C)CC (stereo partly specified) | i | 1.1 | 104 | .
54 | CN(C)c1ccc(S(=O)(=O)c2ccc(Cl)cc2)cc1 | . | . | 102 | -3.7
55 | COc1ccccc1NC(=S)N1CCN(Cc2ccc3c(c2)OCO3)CC1 | i | 0.91 | 102 | -1.2
56 | COc1ccc(-c2nnc(NC(=O)c3ccc(F)cc3)o2)cc1 | . | . | 178 | -1.3
57 | OCCNCc1cc(Br)ccc1OCc1ccc(Cl)cc1 | . | . | 98 | -1.4
58 | COc1ccc(C(=O)Nc2oc(-c3ccccc3)c(-c3ccccc3)c2C#N)cc1OC | i | 0.97 | 97 | -0.3
59 | Cc1cc2c(NC(=O)Nc3ccc(C(C)(C)C)cc3)cccc2nn1 | i | 0.82 | 99 | .
60 | COc1ccc(N2C(=S)NC(C)(C)CC2(C)c2ccc(OC(C)=O)cc2OC(C)=O)cc1 (stereo unspecified) | i | 1 | 87 | .

No. | PKD1 kinase inh | Insulin prom inh | Insulin prom inh cell count
49 | 2 | -136 | 122
50 | 5 | 10 | 147
51 | 6 | . | .
52 | -7 | 6 | 174
53 | 1 | . | .
54 | 2 | 74* | 107*
55 | 3 | 0 | 119
56 | -11 | . | .
57 | -9 | 6 | 99
58 | -9 | . | .
59 | . | . | .
60 | -8 | -36 | 102

Carrying on:
No. | mol | HSV replic up | HSV replic up primary fold | RGS16-Gao | GALR2 ag
61 | CCOC(=O)/C(C#N)=C\c1ccc(O)c(OC)c1 | i | 1.2 | 100 | .
62 | Cc1cc(N2CCOCC2)c2c(N)cc(C)c(C)c2n1 | i | 0.91 | 93 | -1.6
63 | CCOC(=O)c1sc2nc(C)n(CC(=O)NCC3CCCO3)c(=O)c2c1C (stereo unspecified) | i | 0.89 | 102 | -2.0
64 | O=C1CCCC2=C1C(c1ccncc1)c1c(nc(SCc3ccccc3Cl)[nH]c1=O)N2 (stereo unspecified) | i | 1 | 98 | -1.9
65 | CCCC(=O)Oc1ccccc1C1SCc2cc(C)c(C)cc2CS1 | . | . | 99 | -2.7
66 | CC(C(=O)Nc1ccc(O)cc1)c1cccc(C(=O)c2ccccc2)c1 (stereo unspecified) | i | 0.8 | 104 | .
67 | CCOc1ccccc1NC(=O)CSc1ccc([N+](=O)[O-])cc1 | i | 0.86 | 102 | .
68 | CNC(=S)N1CCN(c2ccc(OC)cc2)CC1 | i | 1 | 106 | -1.4
69 | CCCc1nn(C)c(C(=O)Nc2ccccc2)c1Cl | i | 1.1 | 99 | 0.1
70 | CCN(CC)c1nc2ccccc2[nH]c1=O | i | 0.92 | 101 | .
71 | O=C(CCn1c(=O)c2ccccc2n(Cc2cccnc2)c1=O)NCc1ccc2c(c1)OCO2 | i | 0.93 | 93 | -1.6
72 | Cc1noc(C)c1COC(=O)C1(c2cccc(F)c2)CCCC1 | i | 0.98 | 101 | -0.3

No. | PKD1 kinase inh | Insulin prom inh | Insulin prom inh cell count
61 | 4 | 0 | 83
62 | -7 | -22 | 123
63 | 0 | . | .
64 | -7 | 27 | 100
65 | -8 | . | .
66 | -5 | . | .
67 | -1 | . | .
68 | -8 | -13 | 110
69 | 5 | . | .
70 | . | . | .
71 | -6 | . | .
72 | -5 | . | .
